Source: PubChem (National Center for Advancing Translational Sciences (NCATS))
SARS PLpro yeast: SARS-CoV PLP inhibition in yeast. S. cerevisiae expressing SARS-CoV PLpro, growth rescue; control for the full effect not named in the record. Potency, µM (highest dose often 32.9 µM), for inactives: at the highest dose activity, positive = growth rescue. 0.19% of 330,000 active. AID 485353; active means well fitted rising curve with a large enough effect; inconclusive means small, poorly fitted or top-dose-only effect; inactive means no such curve, though single readings can be large or run the other way; also: 0% is about no effect; nearly all actives have a fitted effect of over 55% in size; growth read by luminescence after 48 h
2A StopGo: FMDV 2A StopGo reporter, luciferase signal; human cells with a luciferase reporter of 2A StopGo recoding; control for the full effect not named in the record; 1.2% of 410,000 active; Potency, µM (series often up to 57.9 µM), without a hit: at the highest dose signal change, negative = less light; active = well fitted falling curve with a large enough effect; inconclusive = small, poorly fitted or top-dose-only effect; inactive = no such curve, though single readings can be large or run the other way; tested in HEK293T cells; also: % is scaled to controls: 0 for no effect and ±100 for the full control effect; nearly all actives have a fitted effect of over 45% in size; luciferase light after 4 h
Lassa entry inh: Lassa virus entry inhibition; AID 540256; 1.2% of 300,000 active; Lassa virus pseudotype entry inhibition, cell reporter; control for the full effect not named in the record; Potency, µM (highest dose often 37.9 µM), without a hit: at the highest dose activity change, negative = inhibition, most hits filed as inhibitors; active means well fitted inhibition curve with a large enough effect; inconclusive means small, poorly fitted or top-dose-only effect, or effect the other way; inactive means flat fitted curve, though single readings scatter; tested in HEK293 cells; also: % is scaled to controls: 0 for no effect and ±100 for the full control effect; nearly all actives have a fitted effect of over 50% in size; luciferase read-out
NS1 inh: inhibitors of influenza NS1 protein function | S. cerevisiae slowed by influenza A NS1, growth recovery by OD600 | Potency, µM (titrated, usually from 46.1 µM), inactives show at the highest dose activity, positive = more growth | 0.4% of 270,000 active | AID 2326; active means well fitted rising curve with a large enough effect; inconclusive means small, poorly fitted or top-dose-only effect; inactive means no such curve, though single readings can be large or run the other way; also: nearly all actives have a fitted effect of over 50% in size
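In this qHTS, NS1 from influenza A is expressed in budding yeast, where it slows growth. Cells are switched from glucose to 2% galactose medium (pH 6.0, -URA), treated with compound, and growth recovery is read at OD600.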
Cruzain noTriton: blocks cruzain activity in detergent-free assay. P25779. purified cruzain, Z-FR-AMC fluorescence, no detergent. Potency, µM, for the others: max response, negative = inhibition, hits mostly inhibitors. AID 1476. 2.3% of 200,000 active;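 also: plate controls were enzyme without inhibitor for no effect and buffer without enzyme for full effect; nearly all actives have a fitted effect of over 40% in size; top concentration of the series not given in the record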
Target sequence (P25779 123-467 limits assumed): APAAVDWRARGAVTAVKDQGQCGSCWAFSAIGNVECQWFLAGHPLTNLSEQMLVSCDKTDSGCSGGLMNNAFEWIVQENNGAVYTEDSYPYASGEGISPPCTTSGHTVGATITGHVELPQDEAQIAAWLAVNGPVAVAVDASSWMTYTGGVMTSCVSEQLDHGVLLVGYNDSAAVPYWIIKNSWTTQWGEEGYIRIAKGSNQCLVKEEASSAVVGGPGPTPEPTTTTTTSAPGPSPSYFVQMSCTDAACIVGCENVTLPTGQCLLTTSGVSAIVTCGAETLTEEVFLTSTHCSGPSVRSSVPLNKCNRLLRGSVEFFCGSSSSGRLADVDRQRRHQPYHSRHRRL
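Purified cruzain at 1.5 nM, pre-incubated 15 min with compound at room temperature in 100 mM sodium acetate pH 5.5, 5 mM DTT, 0.00005% Triton X-100. Reaction started with 2 uM Z-FR-AMC; AMC fluorescence increase over 60 s gives rate.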
RE007 growth inh: less growth of the S. pombe RE007 Vpr strain; S. pombe RE007 Vpr strain, BacTiter-Glo ATP luminescence, 24 h; control for the full effect not named in the record; Potency, µM (series often up to 92.2 µM), for inactives: at the highest dose activity change, negative = less growth; 0.21% of 360,000 active; active = well fitted falling curve with a large enough effect; inconclusive = small, poorly fitted or top-dose-only effect; inactive = no such curve, though single readings can be large or run the other way;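 also: % is scaled to controls: 0 for no effect and ±100 for the full control effect; nearly all actives have a fitted effect of over 50% in size; the assay follows cell death caused by Vpr and the record does not say whether a fall means rescue or toxicity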
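Fission yeast strain RE007, carrying one chromosomally integrated HIV-1 vpr copy, was seeded at OD 0.01 in PMG+AL medium with 23 nL pinned compound. After 24 h at 30 °C and 99% humidity, viability was read by BacTiter-Glo luminescence.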
Cruzain inh Det: inhibitors of Trypanosoma cruzi cruzain with detergent; purified cruzain, Z-FR-AMC fluorescence, 0.01% Triton; Potency, µM, for the others: max response, negative = inhibition, usual class: inhibitors; P25779; 0.43% of 200,000 active;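 also: plate controls were neutral wells for no effect and buffer without enzyme for full effect; nearly all actives have a fitted effect of over 40% in size; top concentration of the series not given in the record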
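Detergent-containing arm of a paired screen for aggregation-based inhibition: 0.01% Triton X-100 present. Cruzain at 1.5 nM cleaved 2 uM Z-FR-AMC at pH 5.5 with 5 mM DTT; AMC fluorescence gain over 60 s measured activity.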
Marburg entry inh: blocks Marburg virus binding to or entry into cells | 1.8% of 300,000 active | Potency, µM (top dose mostly 37.8 µM), without a hit: at the highest dose activity change, negative = inhibition, hits mostly inhibitors | Marburg virus pseudotyped entry inhibition, cell reporter; control for the full effect not named in the record; about a third of the inactives were read at about 46 µM; active = well fitted inhibition curve with a large enough effect; inconclusive = small, poorly fitted or top-dose-only effect, or effect the other way; inactive = flat fitted curve, though single readings scatter; tested in HEK293 cells; about a fifth of its hits are not listed in these tables; also: % is scaled to controls: 0 for no effect and ±100 for the full control effect; luciferase read-out
Starred values were filed as active, the others as inactive; ? = inconclusive; / = no result given; & = joins results of further samples; [ ] = dose if it differs, or a comment. Unless noted, calls follow the shape of the dose curve; as a rule, active = well fitted curve in the direction sought with a large enough effect; inconclusive = small, poorly fitted or top-dose-only effect, or another doubt; inactive = no such curve, though single readings can be large; an effect the other way counts as inactive or inconclusive. Potency is read from the fitted curve at half-maximal effect.

Start of the data: the first five entries (preview)
Molecule	SARS PLpro yeast	2A StopGo	Lassa entry inh	NS1 inh	Cruzain noTriton	RE007 growth inh	Cruzain inh Det	Marburg entry inh
COC(=O)c1cc2sccc2n1Cc1nc(-c2ccc(Cl)cc2)oc1C	-4%	-6%&-21%	1%	5%	2%&-25%	4%	-0.2%&5.9%	?
OC(CCc1cccc(Cl)c1)c1cccs1 (stereo not given)	-3%	31%[activator]	/	2%	/	-13%	/	/
N=c1sccn1CC(=O)Nc1ccc(SC(F)F)cc1	2%	-13%	?	/	/	-22%	/	-21%[46.1 µM]
Cc1ccc(-n2nc3c(=O)n(CC(=O)NCCCc4ccccc4)nc(C)c3c2C)cc1	-5%	-25%	/	8%	/	16%	/	/
C=CCN(c1ccccc1C(=O)NCC(=O)O)S(=O)(=O)c1ccc(C)cc1	1%	2%	?	7%	/	-5%	/	?

The whole of this part (from the top)
Molecule	SARS PLpro yeast	2A StopGo	Lassa entry inh	NS1 inh	Cruzain noTriton	RE007 growth inh	Cruzain inh Det	Marburg entry inh
COC(=O)c1cc2sccc2n1Cc1nc(-c2ccc(Cl)cc2)oc1C	-4%	-6%&-21%	1%	5%	2%&-25%	4%	-0.2%&5.9%	?
OC(CCc1cccc(Cl)c1)c1cccs1 (stereo not given)	-3%	31%[activator]	/	2%	/	-13%	/	/
N=c1sccn1CC(=O)Nc1ccc(SC(F)F)cc1	2%	-13%	?	/	/	-22%	/	-21%[46.1 µM]
Cc1ccc(-n2nc3c(=O)n(CC(=O)NCCCc4ccccc4)nc(C)c3c2C)cc1	-5%	-25%	/	8%	/	16%	/	/
C=CCN(c1ccccc1C(=O)NCC(=O)O)S(=O)(=O)c1ccc(C)cc1	1%	2%	?	7%	/	-5%	/	?
COc1ccc(/C=N/N2C(=O)C3C4C=CC(CC4)C3C2=O)c(OC)c1 (stereo not given)	2%	88%[activator]	4%	/	/	-5%	/	?
Cc1ccc(S(=O)(=O)N2CCOCC2)cc1NC(=O)COC(=O)CSc1ccc(Br)cc1C	5%	2%	3%	2%	?	8%	-2.2%	4%
CC(C)Cn1c(N)c(C(=O)CSc2cc(Cl)ccc2Cl)c(=O)n(C)c1=O	-14%	/	-13%	3%	-5%	/	-9.2%	-2%
CCCCC(=O)Nc1ccc(C(=O)Nc2nnc(COC)s2)cc1	14%	25%	8%	9%	3%	-4%	0.0%	-1%
Cc1cc(NC(=O)c2cnc3c(-c4ccccc4)c(C)nn3c2C)ccc1Br	/	-11%	-7%[46.1 µM]	/	?	/	-5.2%	/
Cc1ccc(-c2ccc(/C=N\n3cnnc3)o2)c(Br)c1	-8%	-9%	-5%[46.1 µM]	-63%	/	-6%	/	-23%[46.1 µM]
O=C(NCn1ccc(=O)[nH]c1=S)c1ccccc1	-3%	-15%	17%	-1%	3%	3%	5.6%	4%
O=C(Cc1ccccc1)Nc1ccc(N2CCCCC2)cc1	0%	40%[activator]	-11%	-1%	/	-14%	/	-14%
Cc1nc(-c2ccccc2)nc2[nH]c(=O)n(-c3ccccc3)c(=O)c12	1%	-29%	26%	-5%	-4%	-3%	0.9%	17%
O=C(c1cc([N+](=O)[O-])ccc1Cl)N1c2ccccc2Sc2ccccc21	2%	?	?	-10%	?	5%	-0.8%	?
O=C(COC(=O)Cn1nnc2ccccc21)Nc1ccccc1Br	-2%	11%	?	-13%	-8%	6%	-2.2%	?
Cc1cc(NC(=O)CCCN2C(=O)/C(=C/c3cccs3)SC2=S)no1	4%	-6%	-3%	12%	?	15%	-4.9%	6%
O=C(NC1CCCC1)C1CC(c2ccc(F)cc2)=NO1 (stereo not given)	-2%	46%[activator]	23%	-19%	-2%	-9%	4.9%	3%
COc1ccc(C(CC(=O)N2CCCC2)c2c(OC)cc(OC)c3c(-c4ccccc4)cc(=O)oc23)cc1 (stereo not given)	-2%	67%[activator]	/	-9%	/	-3%	/	/
O=C1C(C=Nc2ccccc2O)=C(O)c2ccccc21	-25%	-41%	?	3%	-7%	?	-2.6%	?
O=C(NC12CC3CC(CC(C3)C1)C2)c1ccc(N2CCNCC2)c([N+](=O)[O-])c1	0%	-6%	3%	3%	/	4%	/	27%
Cc1ccc(SCC(=O)N2CCN(c3ccccn3)CC2)cc1	3%	10%	11%[46.1 µM]	-40%	/	?	/	26%[46.1 µM]
Cc1cc(C)c(NC(=O)c2cccs2)c(C)c1NC(=O)c1cccs1	-2%	0%	0%[46.1 µM]	6%	/	3%	/	?
CCN(CCO)C(=S)Nc1cc(S(=O)(=O)N(C)C)ccc1C	3%	12%	?	-2%	/	-7%	/	-10%[46.1 µM]
O=C(c1c(F)cccc1F)N1CCN(CCOc2ccccc2)CC1	1%	?	-10%	-1%	/	-27%	/	-6%
CC1CC(C)CN(CCCNC(=O)C2CCC(=O)N2C2CCCC2)C1 (stereo not given)	1%	-17%	14%	-8%	10%	-1%	3.5%	6%
CC(C)CC1CC(=O)OC1(C)C(=O)CSc1nc2ccccc2s1 (stereo not given)	-2%	18%	1%	11%	10%	29%	-4.5%	?
Cc1ccccc1C(=O)Nc1cccc(NC(=O)c2ncn[nH]2)c1	3%	2%	/	0%	/	-6%	/	/
Cc1ccccc1NS(=O)(=O)c1ccc(C(=O)NCCCN2CCOCC2)cc1	-5%	-7%	3%	/	/	-2%	/	-15%
Cc1c(NC(=O)C(C)OC(=O)CNC(=O)c2ccc(C(C)(C)C)cc2)c(=O)n(-c2ccccc2)n1C (stereo not given)	1%	52%[activator]	26%	-2%	18%	0%	1.4%	11%
O=C(CSc1ccc(F)cc1)N1CCOCC1	1%	-10%	/	-1%	/	-10%	/	/
CCn1cc(C(=O)N2CCc3ccccc32)c(=O)c2cc(S(=O)(=O)N(C)C3CCCCC3)ccc21	-13%	10%	?	?	20%	0%	-5.0%	?
CSCCC(NC(=O)c1ccco1)C(=O)OC(C)C(=O)NC(=O)NC1CCCCC1 (stereo not given)	1%	-9%	?	-13%	17%	-2%	-5.7%	7%&7%
Cc1nc2c(sc(=S)n2Cc2ccco2)c(=O)n1CC(=O)Nc1ccccc1Cl	1%	?	/	1%	/	-14%	/	/
CC1=CC(C)(C)N(C(=O)CSc2nnc(N)s2)c2ccccc21	-12%	?	-1%	3%	3%	-7%	-1.6%	?
CSCCCNC(=S)N(C)CC(=O)Nc1ccc(C)cc1	2%	-24%	8%[46.1 µM]	/	/	5%	/	-12%[46.1 µM]
COc1ccc(S(=O)(=O)N2CCCC(C(=O)Nc3ccc4c(c3)OCCO4)C2)cc1 (stereo not given)	-16%	/	-10%	0%	-6%	0%	1.1%	-6%
COC(=O)c1sccc1-c1ccc(C(=O)Nc2cccnc2)o1	-4%	0%	0%	-2%	-15%	-15%	-3.9%	?
Cc1nn(CCOc2ccccc2)c(=O)n1-c1ccc(Cl)cc1	8%	59%[activator]	4%	/	/	7%	/	10%[46.1 µM]
COc1ccc(N(CC(=O)NC2CCCC2)C(=O)CCC(=O)Nc2cc(C)on2)cc1	-1%	4%	-1%	-6%	/	1%	/	5%[46.1 µM]
O=C(O)c1cccc(S(=O)(=O)N2CCCC(c3nc4c(nnn4Cc4ccc(F)cc4)c(=O)[nH]3)C2)c1 (stereo not given)	0%	8%	-5%[46.1 µM]	6%	/	-2%	/	3%[46.1 µM]
O=C1CCC/C1=C/Nc1ccc2c(c1)OCO2	1%	-7%	8%	17%	-4%	20%[3.69 µM]	-8.1%	30%
Cc1ccc(Cl)cc1N1CCN(CCNC(=O)Nc2ccc(Cl)cc2)CC1	/	?	18%[46.1 µM]	/	-14%	/	-14%	?
O=C(Oc1ccc(=O)n(-c2ccccc2)n1)c1ccccc1	?	-32%	-11%	-23%	-5%	-21%	-1.4%	-12%[46.1 µM]
O=C(CCc1nc(-c2ccccc2Cl)no1)NCCc1ccccc1	1%	5%	18%[46.1 µM]	-4%	/	-4%	/	-6%[46.1 µM]
O=C(COCCOCC(=O)N(c1ccccn1)C1CCCCC1)N(c1ccccn1)C1CCCCC1	12%	-7%	-5%	-6%	?	5%	-0.8%	2%&2%
O=C(Nc1nnc(CCS(=O)(=O)c2ccc(Br)cc2)s1)c1ccc([N+](=O)[O-])cc1	4%	29%	5%	-6%	5µM*	16%	4.7%	6%
COc1cc(NC(=O)Cn2cnc3sc(C)c(S(=O)(=O)N4CCOCC4)c3c2=O)cc(OC)c1OC	1%	-10%	4%[46.1 µM]	5%	/	-2%	/	-2%[46.1 µM]
CCOc1ccccc1CN1CCN(Cc2ccon2)CC1CCO (stereo not given)	0%	-5%	2%	2%	/	-12%	/	-6%[46.1 µM]
Cc1ccc(C(=O)C2CCOC(C)(C)C2)cc1 (stereo not given)	-2%	11%	/	1%	/	0%	/	/
Cc1cc(C)c(NC(=O)C2C3/C=C\CCCCC32)c(C)c1 (stereo not given)	2%	24%	36%	-11%	0%	0%	7.8%	?
O=C1Nc2ccccc2C1(c1ccccc1)c1ccccc1	-10%	?	?	1%	-1%	5%	-3.1%	?
